# High-throughput results from PubChem.
# A1 apoptosis 2: A1 inhibition read as caspase activation. caspase activation, % (no concentration beside the values). MEF A1-2A-BIM cells, caspase-Glo luminescence, 3 h; percent of clofoctol response, DMSO zero. 24,000 tested, under 10 active; in the data active = caspase activation above about 5.9%;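 also: wells of about 30 µL received 50 nL stock; the first replicate is given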
#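 System: mouse embryonic fibroblasts co-expressing A1 and BIM (A1-2A-BIM), primed for A1 dependence; amount: 2500 cells/well; doses: 50 nL pinned compound; schedule: cells settled overnight, compound exposure 3 h at 37 °C, 5% CO2; detection: Caspase-Glo 3/7 luminescence, 1 h at room temperature; read-out: Caspase-3/7 activation, seen as rise in luminescence signal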
# * marks the source's active call; other numbers are inactive results. Only part of the results is shown; rates above refer to the full screens.
no.	compound	A1 apoptosis 2
1	CC(C)NC(=O)Nc1ccc2c(c1)C(=O)N([C@H](C)CO)C[C@@H](C)[C@@H](CN(C)S(=O)(=O)c1ccccc1)OCCCC[C@@H](C)O2	0.2
2	C=CC[C@@]1(C(=O)OC)N=C(c2ccc(OCCCO)cc2)O[C@@H]1c1ccccc1CN=[N+]=[N-]	0.8
3	COc1ccc(NC(=O)Nc2cccc3c2O[C@@H](CN(C)Cc2ccncc2)[C@H](C)CN([C@@H](C)CO)C3=O)cc1	-0.4
4	C[C@@H]1CN([C@H](C)CO)C(=O)c2cc(NC(=O)Cc3ccccc3)ccc2O[C@@H](C)CCCCO[C@H]1CN(C)S(=O)(=O)c1cn(C)cn1	-0.9
5	C[C@H]1CN([C@@H](C)CO)C(=O)CCCn2cc(nn2)CO[C@H]1CN(C)C(=O)Nc1ccccc1C(F)(F)F	1.0
6	C[C@H]1CN([C@@H](C)CO)C(=O)c2cc(NC(=O)CCN3CCOCC3)ccc2O[C@@H]1CN(C)C(=O)Nc1ccccc1	0.6
7	C[C@H](CO)N1C[C@H](C)[C@@H](CN(C)S(C)(=O)=O)Oc2ccc(NC(=O)CCN3CCOCC3)cc2CC1=O	-0.7
8	Cc1noc(C)c1NC(=O)Nc1ccc2c(c1)CC(=O)N([C@H](C)CO)C[C@H](C)[C@H](CN(C)S(C)(=O)=O)O2	0.4
9	O=C(O)C1=C[C@@H](c2ccc(Br)cc2)C[C@@H](OCCCCO)O1	-0.3
10	COC(=O)[C@]1(Cc2ccccc2N=[N+]=[N-])N=C(c2ccc(OCCCO)cc2)O[C@@H]1c1ccccc1N=[N+]=[N-]	-0.1

# Next section, starting with the last six of the part before.
no.	compound	A1 apoptosis 2
5	C[C@H]1CN([C@@H](C)CO)C(=O)CCCn2cc(nn2)CO[C@H]1CN(C)C(=O)Nc1ccccc1C(F)(F)F	1.0
6	C[C@H]1CN([C@@H](C)CO)C(=O)c2cc(NC(=O)CCN3CCOCC3)ccc2O[C@@H]1CN(C)C(=O)Nc1ccccc1	0.6
7	C[C@H](CO)N1C[C@H](C)[C@@H](CN(C)S(C)(=O)=O)Oc2ccc(NC(=O)CCN3CCOCC3)cc2CC1=O	-0.7
8	Cc1noc(C)c1NC(=O)Nc1ccc2c(c1)CC(=O)N([C@H](C)CO)C[C@H](C)[C@H](CN(C)S(C)(=O)=O)O2	0.4
9	O=C(O)C1=C[C@@H](c2ccc(Br)cc2)C[C@@H](OCCCCO)O1	-0.3
10	COC(=O)[C@]1(Cc2ccccc2N=[N+]=[N-])N=C(c2ccc(OCCCO)cc2)O[C@@H]1c1ccccc1N=[N+]=[N-]	-0.1
11	C[C@@H]1CN([C@H](C)CO)C(=O)Cc2cc(NC(=O)C3CCCCC3)ccc2O[C@@H]1CN(C)C(=O)Nc1ccc(C(F)(F)F)cc1	-0.2
12	C[C@@H]1CN([C@@H](C)CO)C(=O)c2cccc(NS(C)(=O)=O)c2O[C@@H]1CN(C)S(=O)(=O)c1ccc(Cl)cc1	-0.7
13	C[C@@H]1CN([C@H](C)CO)C(=O)c2cc(NC(=O)CCC(F)(F)F)ccc2O[C@@H](C)CCCCO[C@@H]1CN(C)C(=O)C1CCCCC1	1.4
14	C[C@H](CO)N1C[C@H](C)[C@@H](CN(C)C(=O)Nc2ccc(C(F)(F)F)cc2)Oc2ccc(NS(=O)(=O)c3cccs3)cc2C1=O	-1.2
15	C[C@H]1CN([C@@H](C)CO)C(=O)c2cccc(NC(=O)Nc3ccc(F)cc3)c2O[C@@H]1CN(C)Cc1ccc(C(=O)O)cc1	-0.4
16	C[C@H](CO)N1C[C@H](C)[C@@H](CN(C)Cc2ccccc2)Oc2c(cccc2N(C)C)C1=O	-0.2
17	Cc1noc(C)c1NC(=O)Nc1ccc2c(c1)C(=O)N([C@H](C)CO)C[C@@H](C)[C@@H](CN(C)Cc1ccc(Oc3ccccc3)cc1)O2	-0.5
18	COCCOC(=O)N1C(=O)[C@@]2(c3cc(C#CCNC(N)=O)ccc31)[C@H](C(=O)NC[C@H](O)c1ccccc1)[C@H]1C(=O)O[C@H](c3ccccc3)[C@H](c3ccccc3)N1[C@@H]2c1ccc(O)cc1	0.7
19	C[C@@H]1CN([C@@H](C)CO)C(=O)c2cccc(NC(=O)c3cnccn3)c2O[C@H]1CN(C)Cc1ccc(C(F)(F)F)cc1	-1.5
20	COc1ccc(S(=O)(=O)N(C)C[C@H]2Oc3ccc(NS(=O)(=O)c4c(C)noc4C)cc3CC(=O)N([C@@H](C)CO)C[C@H]2C)cc1	1.4
21	CNC[C@@H]1Oc2ccc(NC(=O)CCC(F)(F)F)cc2CC(=O)N([C@@H](C)CO)C[C@@H]1C	0.7
22	COc1ccc(S(=O)(=O)N(C)C[C@@H]2Oc3ccc(NC(=O)NC4CCCCC4)cc3CC(=O)N([C@H](C)CO)C[C@H]2C)cc1	-0.2
23	COc1ccc(S(=O)(=O)Nc2cccc3c2O[C@@H](CN(C)C(=O)Nc2ccc4c(c2)OCO4)[C@@H](C)CN([C@@H](C)CO)C3=O)cc1	-0.2
24	O=C(N/N=C/c1cc(Cl)cc(Cl)c1O)c1ccccn1	-2.5
25	C[C@@H]1CN([C@H](C)CO)C(=O)Cc2cc(NC(=O)CCC(F)(F)F)ccc2O[C@H]1CN(C)Cc1ccc2c(c1)OCO2	-1.1
26	Cc1noc(C)c1S(=O)(=O)Nc1cccc2c1O[C@H](CN(C)Cc1ccncc1)[C@H](C)CN([C@H](C)CO)C2=O	0.1
27	C[C@H]1CN([C@@H](C)CO)C(=O)c2cc(NC(=O)CCCCCC(=O)Nc3ccccc3N)ccc2O[C@H]1CN(C)Cc1ccncc1	0.3
28	C[C@@H]1CN([C@H](C)CO)C(=O)c2cccc(NC(=O)c3ccc(-c4nccs4)cc3)c2O[C@H]1CN(C)C(=O)NC1CCCCC1	0.9
29	C[C@@H]1CN([C@H](C)CO)C(=O)Cc2cc(NC(=O)Nc3ccccc3)ccc2O[C@H]1CN(C)C(=O)Nc1cccc2ccccc12	2.0
30	O=C(NO)c1ccc(C(=O)N/N=C/c2ccc3ccccc3n2)cc1	-1.4
31	O=C(N/N=C/c1c(F)c(F)c(F)c(F)c1F)c1ccccn1	-2.9
32	CCO[C@@H]1OC(C(=O)N2CCN(C)CC2)=C[C@H](C(C)(C)C)[C@H]1CCCO	0.4
33	CC(C)NC(=O)Nc1ccc2c(c1)C(=O)N([C@@H](C)CO)C[C@H](C)[C@H](CN(C)C(=O)Nc1ccc(F)cc1)OCCCC[C@@H](C)O2	-0.1
34	C[C@@H]1CN([C@@H](C)CO)C(=O)CCCn2nncc2CO[C@@H]1CN(C)Cc1ccc2cccnc2c1	1.4
35	C[C@H](CO)N1C[C@H](C)[C@H](CN(C)CC2CCCCC2)OCCCC[C@H](C)Oc2ccc(NC(=O)c3ccncc3)cc2C1=O	-0.1
36	OCc1ccc(-c2ccncc2)cc1	1.2
37	C[C@H]1CN([C@@H](C)CO)C(=O)c2cc(NS(=O)(=O)c3ccc(F)cc3)ccc2O[C@H]1CN(C)C(=O)Nc1cccc2ccccc12	0.2
38	NC(=O)COc1ccccc1/C=N/NC(=O)CCCCC(=O)NO	0.4
39	C[C@@H]1CCCCO[C@H](CN(C)C(=O)CCC(F)(F)F)[C@H](C)CN([C@@H](C)CO)C(=O)c2cc(NC(=O)Nc3ccc4c(c3)OCO4)ccc2O1	-1.2
40	C[C@@H]1CCCCO[C@H](CN(C)C(=O)NC2CCCCC2)[C@@H](C)CN([C@@H](C)CO)C(=O)c2cc(NC(=O)c3ccncc3)ccc2O1	-0.4
41	C[C@@H]1CN([C@@H](C)CO)C(=O)c2cc(NS(=O)(=O)c3cn(C)cn3)ccc2O[C@@H]1CN(C)S(=O)(=O)c1ccc(F)cc1	-2.0
42	C[C@@H]1CN([C@@H](C)CO)C(=O)CCCn2nncc2CO[C@H]1CN(C)S(=O)(=O)c1ccc(C#N)cc1	-1.2
43	C[C@H](CO)N1C[C@H](C)[C@@H](CN(C)CC2CCCCC2)Oc2c(NC(=O)C3CCOCC3)cccc2C1=O	-0.5
44	C[C@@H]1CN([C@@H](C)CO)C(=O)CCCn2nncc2CO[C@H]1CN(C)C(=O)Nc1ccccc1F	-1.2
45	C[C@@H]1CN([C@@H](C)CO)C(=O)c2cc(NC(=O)CCCN(C)C)ccc2O[C@@H]1CN(C)Cc1ccc(Cl)c(Cl)c1	1.0
46	C[C@@H]1CN([C@@H](C)CO)C(=O)c2cc(NS(=O)(=O)c3ccc(Cl)cc3)ccc2O[C@@H]1CN(C)Cc1ccc(C(=O)Nc2ccccc2N)cc1	0.6
47	CCO[C@H]1OC(C(=O)N2CCN(C)CC2)=C[C@@H](c2ccc(C(F)(F)F)cc2)[C@@H]1CCCO	0.2
48	C[C@H](CO)N1C[C@H](C)[C@@H](CN(C)C(=O)Nc2ccc(F)cc2)Oc2ccc(NC(=O)Cc3cn(C)c4ccccc34)cc2CC1=O	-1.1
49	C[C@@H]1CCCCO[C@H](CN(C)C(=O)NC2CCCCC2)[C@H](C)CN([C@@H](C)CO)C(=O)c2cc(NC(=O)Nc3ccc(C(F)(F)F)cc3)ccc2O1	1.3
50	COc1ccc(S(=O)(=O)Nc2ccc3c(c2)C(=O)N([C@@H](C)CO)C[C@@H](C)[C@H](CN(C)C(=O)NC(C)C)OCCCC[C@@H](C)O3)cc1	0.2
51	CNC[C@@H]1OCCCC[C@@H](C)Oc2ccc(NS(C)(=O)=O)cc2C(=O)N([C@H](C)CO)C[C@@H]1C	1.0
52	C[C@H](CO)N1C[C@H](C)[C@H](CN(C)C(=O)Nc2cccc(Oc3ccccn3)c2)OCc2cnnn2CCCC1=O	-0.2
53	C[C@@H]1CN([C@@H](C)CO)C(=O)Cc2cc(NC(=O)Nc3ccc(F)cc3)ccc2O[C@@H]1CN(C)C(=O)Nc1ccccc1	1.1
54	C[C@@H]1CN([C@H](C)CO)C(=O)c2cccc(NC(=O)C3CCCCC3)c2O[C@@H]1CN(C)S(=O)(=O)c1ccc(Cl)cc1	0.3
55	O=C(CCCCCC(=O)Nc1ccccc1O)N/N=C\c1cc(O)ccc1O	0.2
56	C[C@H](CO)N1C[C@H](C)[C@@H](CN(C)S(=O)(=O)c2ccccc2)Oc2ccc(NC(=O)Nc3ccc4c(c3)OCO4)cc2C1=O	-0.1
57	COc1ccc(CN(C)C[C@@H]2Oc3c(NC(=O)C4CC4)cccc3C(=O)N([C@H](C)CO)C[C@H]2C)cc1	-0.3
58	COc1ccc(NC(=O)N(C)C[C@H]2OCCCC[C@H](C)Oc3ccc(NS(C)(=O)=O)cc3C(=O)N([C@@H](C)CO)C[C@@H]2C)cc1	3.1
59	C[C@H]1CCCCO[C@@H](CN(C)C)[C@@H](C)CN([C@@H](C)CO)C(=O)c2cc(NC(=O)CCCN(C)C)ccc2O1	0.4
60	COc1ccc(NC(=O)N(C)C[C@@H]2Oc3ccc(NC(=O)Nc4ccc(C(F)(F)F)cc4)cc3CC(=O)N([C@H](C)CO)C[C@@H]2C)cc1	-1.5

# Additional records.
no.	compound	A1 apoptosis 2
61	C[C@@H]1CN([C@H](C)CO)C(=O)Cc2cc(N(C)C)ccc2O[C@H]1CN(C)C(=O)Nc1cccc2ccccc12	-0.7
62	COc1ccc(S(=O)(=O)N(C)C[C@@H]2OCCCC[C@H](C)Oc3ccc(NS(=O)(=O)c4ccc(Cl)cc4)cc3C(=O)N([C@@H](C)CO)C[C@H]2C)cc1	-1.1
63	C[C@H](CO)N1C[C@H](C)[C@H](CN(C)C(=O)Nc2ccc3c(c2)OCO3)Oc2ccc(NC(=O)Nc3ccc4c(c3)OCO4)cc2C1=O	1.2
64	C[C@@H]1CCCCO[C@H](CN(C)S(=O)(=O)c2ccc(Cl)cc2)[C@@H](C)CN([C@H](C)CO)C(=O)c2cc(NC(=O)c3ccccc3)ccc2O1	0.0
65	C[C@@H]1CCCCO[C@H](CN(C)C(=O)Nc2ccccc2)[C@H](C)CN([C@H](C)CO)C(=O)c2cc(NC(=O)Cc3ccccc3)ccc2O1	-0.6
66	C[C@H](CO)N1C[C@H](C)[C@@H](CN(C)C(=O)Nc2ccc3c(c2)OCO3)Oc2ccc(N(C)C)cc2C1=O	-1.9
67	C[C@H](CO)N1C[C@H](C)[C@H](CN(C)Cc2ccncc2)Oc2ccc(NC(=O)Nc3ccc4c(c3)OCO4)cc2C1=O	0.5
68	C[C@@H]1CN([C@H](C)CO)C(=O)c2cccc(NC(=O)c3ccc(-c4nccs4)cc3)c2O[C@H]1CN(C)CC1CC1	-1.8
69	COc1ccc(S(=O)(=O)N(C)C[C@H]2Oc3c(NC(=O)c4ccncc4)cccc3C(=O)N([C@H](C)CO)C[C@@H]2C)cc1	0.0
70	C[C@@H]1CN([C@H](C)CO)C(=O)c2cc(NC(=O)Nc3cccc4ccccc34)ccc2O[C@@H]1CN(C)C(=O)Nc1cccc2ccccc12	1.6
71	C[C@@H]1CN([C@H](C)CO)C(=O)c2cc(NC(=O)CCCN(C)C)ccc2O[C@@H](C)CCCCO[C@H]1CN(C)C(=O)NC1CCCCC1	0.3
72	C[C@@H]1CCCCO[C@@H](CN(C)S(=O)(=O)c2ccc(F)cc2)[C@@H](C)CN([C@@H](C)CO)C(=O)c2cc(NS(C)(=O)=O)ccc2O1	1.1
73	C[C@H]1CN([C@@H](C)CO)C(=O)Cc2cc(NC(=O)Nc3cccc4ccccc34)ccc2O[C@@H]1CN(C)Cc1ccc(C(=O)Nc2ccccc2N)cc1	-1.7
74	C[C@H](CO)N1C[C@H](C)[C@H](CN(C)S(=O)(=O)c2ccc(F)cc2)OCc2cn(nn2)CCCC1=O	0.1
75	COc1ccccc1CN1C(=O)c2ccccc2[C@@H](C(=O)NCc2ccccc2)[C@@H]1c1ccc(CO)cc1	0.6
